gsp antagonist: gsp mutant antagonism. gsp-mutant cells, cAMP HTRF, 30 min; control for the full effect not named in the record. Potency, µM (series often up to 76.9 µM), for the others: top-dose activity change, negative = inhibition, most hits filed as inhibitors. 0.4% of 340,000 active; active = falling curve of any shape with a large fitted effect; inconclusive = falling curve, mostly with a smaller effect; inactive = flat or rising curve; cell line not stated here;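 also: intracellular cAMP measured with PDE inhibitor Ro 20-1724 present during compound exposure; potency is read from the fitted curve at half-maximal effect; % is scaled to controls: 0 for no effect and ±100 for the full control effect; nearly all actives have a fitted effect of over 65% in size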
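G418-selected cells were plated in DMEM/10% FBS for 16-24 h at 37C, then treated with compounds plus the PDE inhibitor […] (300 uM solution added) for 30 min at 37C. Intracellular cAMP was measured by HTRF after 30 min lysis at room temperature.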
Menin MLL FP FL: displaces fluorescein MLL peptide from human menin; Fluorescence polarization, fluorescein-MLL peptide displacement from menin; FP activity change, % at 61.4 µM; 290,000 tested, under 10 active; inconclusive = falling polarisation curve, or a change in total fluorescence; inactive = total fluorescence flat and polarisation flat or rising; no compound was filed as active; the % refers to the polarisation; negative = inhibition;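 also: % of control where 0% means no effect; inhibitors lower the polarisation; unlabelled MLL peptide was the positive control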
D2 PAM: positive allosteric modulators of human D2 dopamine receptor. P14416. DiscoveRx D2 beta-arrestin cells, luminescence, 90 min; 100% = 57 uM dopamine signal. potentiation, % (no concentration beside the values). 0.23% of 360,000 active. AID 624464; active = potentiation of 50% or more; inconclusive = 30% to 50%; inactive = 30% or less;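 also: compound concentration not given in the record; tested on top of an EC20 dose of dopamine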
Target sequence (P14416 whole entry, looked up): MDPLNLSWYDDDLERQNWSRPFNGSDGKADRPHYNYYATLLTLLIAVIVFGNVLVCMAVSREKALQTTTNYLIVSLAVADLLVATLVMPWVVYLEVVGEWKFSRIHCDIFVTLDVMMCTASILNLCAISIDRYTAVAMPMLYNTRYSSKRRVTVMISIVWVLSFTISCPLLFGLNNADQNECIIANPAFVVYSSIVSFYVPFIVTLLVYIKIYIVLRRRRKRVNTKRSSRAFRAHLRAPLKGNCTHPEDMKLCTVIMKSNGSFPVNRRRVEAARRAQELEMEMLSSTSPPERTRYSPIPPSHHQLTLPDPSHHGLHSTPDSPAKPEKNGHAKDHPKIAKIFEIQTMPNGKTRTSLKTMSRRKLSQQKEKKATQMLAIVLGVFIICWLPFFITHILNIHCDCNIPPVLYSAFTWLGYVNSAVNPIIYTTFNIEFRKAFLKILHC
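PathHunter beta-arrestin assay in DiscoveRx D2 cells. Compounds were added with an EC20 of dopamine (50 nM final) for 90 min at 37 deg C. Luminescence was read 1 h after detection reagent, with 57 uM dopamine as the EC100 control.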
TRPV1 potentiator: potentiators of human vanilloid receptor 1 (TRPV1); Q8NER1; TRPV1-expressing cells, Fluo-8 calcium influx, capsaicin EC20 potentiation; host cell line not named in the record; control for the full effect not named in the record; 0.02% of 320,000 active; potentiation, % at 8.33 µM; active means potentiation above 80%; inconclusive means 30% to 80%; inactive means below 30%; also: 0% is about no effect
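TRPV1-expressing cells were cultured overnight at 35.5C and loaded with Fluo-8 calcium dye for 40 to 90 min at room temperature. After a 10 s baseline, compound was added and calcium influx was read kinetically for 3 min (ex 480/em 520 nm).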
ClpP mod: qHTS Assay for Activators of ClpP. ATP-dependent Clp protease proteolytic subunit (Bacillus subtilis (strain 168)), P80244. purified B. subtilis ClpP, FRET peptide cleavage, 20 min. Potency, µM (top dose mostly 57.5 µM), for the others: top-dose activity change, negative = active. 1.9% of 340,000 active. AID 651965, 2013; active = well fitted falling curve with a large enough effect; inconclusive = small, poorly fitted or top-dose-only effect; inactive = no such curve, though single readings can be large or run the other way; also: potency is read from the fitted curve at half-maximal effect; the source files actives as falling curves though it sought activators and does not explain the sign; nearly all actives have a fitted effect of over 65% in size; many hits overshoot -100%
Target sequence (P80244 whole entry, looked up): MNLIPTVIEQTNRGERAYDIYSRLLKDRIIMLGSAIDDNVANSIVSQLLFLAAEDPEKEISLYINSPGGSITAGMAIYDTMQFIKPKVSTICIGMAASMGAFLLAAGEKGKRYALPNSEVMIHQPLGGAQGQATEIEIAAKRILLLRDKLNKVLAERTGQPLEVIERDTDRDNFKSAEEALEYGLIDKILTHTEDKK
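FRET quenching reversal measured ClpP activation: 10 microg/mL B. subtilis ClpP at pH 8 with the FRET-FV decapeptide, read at 430 nm after 320 nm excitation. The 20-min minus 0-min signal was scaled between DMSO/no-enzyme wells and ADEP (5.8 microM final).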
gsp ag: gsp mutant agonism; gsp mutant cells, cAMP HTRF, 30 min; control for the full effect not named in the record; Potency, µM (highest dose often 76.9 µM), without a hit: top-dose activation (cAMP increase), hits mostly activators; 0.13% of 340,000 active; active = well fitted activation curve with a large enough effect; inconclusive = small, poorly fitted or top-dose-only effect, or another doubt; inactive = no such curve, though single readings can be large or run the other way; cell line not stated here;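 also: phosphodiesterase inhibitor Ro 20-1724 added with compounds to block cAMP breakdown; potency is read from the fitted curve at half-maximal effect; nearly all actives have a fitted effect of over 60% in size; about a fifth of the inactives were tested at one dose only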
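Cells stably selected in G418 were plated at 2000/well, grown 16-24 hr, then given compounds in DMSO with the PDE inhibitor […] (300 uM solution added) for 30 min at 37C; cAMP was read by HTRF.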
Sfp PPTase inh: Sfp phosphopantetheinyl transferase inhibition; Potency, µM, for the others: max response, negative = inhibition, most hits filed as inhibitors; 3.5% of 310,000 active; Biochemical Sfp PPTase activity, qHTS; active = well fitted inhibition curve with a large enough effect; inconclusive = small, poorly fitted or top-dose-only effect, or another doubt; inactive = no such curve, though single readings can be large or run the other way;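 also: the enzyme is Sfp with the accession as filed and its product quenches rhodamine fluorescence; potency is read from the fitted curve at half-maximal effect; 0% = enzyme reaction without inhibitor and -100% = no enzyme wells; top concentration of the series not given in the record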
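With Hepes-Na pH 7.6 buffer containing 10 mM MgCl2, Sfp (15 nM) modified BHQ-2-YbbR (12.5 uM) using rhodamine-CoA (5 uM). Two reads 30 minutes apart at 525/598 nm yielded each well's rate.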
The depositor's hits bear a star; ? = inconclusive; / = not tested or not shown; & = joins results of further samples; [ ] = another dose, or the depositor's remark. Rows were taken by chance, and some 5.1% of all compounds hit somewhere here.

SMILES | gsp antagonist | Menin MLL FP FL | D2 PAM | TRPV1 potentiator | ClpP mod | gsp ag | Sfp PPTase inh
COc1ccc(C(=O)NCc2ccc(C(=O)NCC(OC)OC)cc2)cc1OC | -8% | -3.1 | -4 | 5 | 4.4% | 14%[15.4 µM] | 20%
CC(C)(C)C(=O)Nc1ccc(C(=O)NNC(=O)Cc2ccccc2)cc1 | 10% | 1.8 | 15 | 7 | -1.1% | 8% | 10%
c1ccc(-n2nnnc2NCCCN2CCOCC2)cc1 | 5% | -0.6 | -4 | 4 | -8.3% | 14% | 11%
CN1CCN(C(=O)NCC23CC4CC(CC(C4)C2)C3)CC1 | 4% | -4.5 | -2 | 11 | -0.6% | -129%[inhibitor] | 16%
CCOc1ccc(CCNC(=O)C2CCCN(c3nn4c(=O)cc(C)nc4s3)C2)cc1 (stereo not given) | -3% | 4.4 | 1 | -4 | 0.8% | 12% | 12%
COc1ccc(Cl)cc1NC(=O)Cc1c(F)cccc1Cl | 27% | 5.3 | -15 | -2 | 1.7% | -65% | 4%
Fc1ccc(-c2cc(-c3ccccc3)nc(-n3cccn3)n2)cc1 | ? | -6.0 | 1 | 5 | / | -4% | ?
Cc1ccccc1NC(=O)NC1CCCCCCC1 | -1% | 1.7 | -10 | -8 | -3.1% | 7% | 11%
C[C@H](NS(=O)(=O)c1ccc(Cl)cc1)C(=O)OCC(=O)NC(=O)Nc1ccc2c(c1)OCCO2 | -11% | 6.7 | -4 | 1 | 1.3% | -18% | -7%
COc1ccc2nc(-c3ccccn3)[nH]c2c1 | -1% | 0.0 | -1 | 1 | -2.5% | ? | -23%
Cc1nc2ccccc2nc1SCC(=O)N1CCC(C)CC1 | 12% | -2.2 | -1 | -7 | -8.9% | 10µM* | 17%
Cc1cc(NC(=O)NC(=O)c2ccccc2)no1 | -1% | 1.2 | -16 | -11 | 1.4% | -19% | 22%
Cc1cccc(N2CCN(C(=O)c3ccc4ccccc4c3)CC2C)c1 (stereo not given) | -26% | / | -18 | / | -2.9% | -22% | /
CN1/C(=C\C=N\NC(=O)c2ccccc2Br)C(C)(C)c2ccccc21 | 8% | 7.5 | -9 | 18 | -2.2% | -3% | 2%
CCC(=O)c1ccc(N2CCCCC2)c(F)c1 | 13% | -0.3 | 0 | 2 | -0.3% | -18% | 13%
CC1CN(C)C(C)c2c1oc1ccc(N)cc21 (stereo not given) | -14% | ? | -13 | 0 | / | -11%[15.4 µM] | 22%
COC(=O)c1ccc(COc2ccc(/C=N/NC(N)=S)cc2)o1 | -5% | 0.7 | -7 | -8 | 0.0% | 3% | -4%
Cc1cccc(-n2c(SCC(=O)NCc3ccc4c(c3)OCO4)nc3ccccc3c2=O)c1 | -3% | 9.8 | -8 | 16 | -5.5% | 1% | 10%
O=C(NN=Cc1cc(Cl)ccc1[N+](=O)[O-])c1cccc2ccccc12 | -15% | / | -3 | / | -1.8% | 0% | /
O=C(O)c1ccccc1NC(=S)NC(=O)c1cccc2ccccc12 | -7% | -0.2 | 22 | 0 | / | -38%[inhibitor] | 50µM*
COc1ccc(C(=O)NCCS(=O)(=O)NCc2ccco2)cc1 | 5% | / | -22 | -5 | 1.9% | -50%[inhibitor] | /
COC(=O)c1c(F)c(F)c(N2CCOCC2)c(F)c1F | 8% | 6.2 | -3 | 2 | -1.7% | -7% | 19%
CNCCC(=O)N1c2ccccc2CCc2ccc(NC(=O)OC)cc21 | 10% | -6.3 | -8 | 2 | -2.3% | -30% | 5%
Cc1cccc(-n2nc3c(c2NC(=O)c2c(F)cccc2F)CS(=O)(=O)C3)c1C | 16% | 1.5 | -5 | 0 | -3.1% | 0% | 20%
CC(NC(=O)c1cc(S(=O)(=O)N2CCCC2)ccc1Cl)c1ccccn1 (stereo not given) | 15% | / | 0 | 18 | 1.6% | ? | /
O=[N+]([O-])c1ccc(S(=O)(=O)Nc2nc(-c3ccccc3)cs2)cc1 | -21% | 1.1 | -20 | 0 | -1.8% | 0% | 9%
CCN(CC)Cc1c(CC(C)C)oc(C)c1C(=O)O | -1% | 2.1 | 4 | -4 | 0.6% | 14% | 1%
c1ccc2nc3c(cc2c1)CCCCC3 | 13% | -0.3 | -5 | -21 | 1.6% | ? | ?
CC(C)C(NC(=O)c1ccccc1)C(=O)OCC(=O)N1CCCCC1 (stereo not given) | -8% | / | -3 | -5 | -1.2% | -3% | /
COc1ccc(OC2CCN(S(=O)(=O)c3ccc(F)cc3)CC2)cc1 | -5% | -1.8 | 0 | -4 | / | -24% | -3%
CCCCNC(=S)N(C)/N=C/c1ccccc1C(=O)O | -21% | 0.4 | -6 | ? | -0.3% | -2% | 16%
O=C(CSc1nnc(CNC(=O)c2ccccc2F)o1)NC1CCCCC1 | 5% | / | -7 | 4 | -0.4% | -75%[inhibitor] | 3%
COC(=O)c1ccc(COc2ccc(C3C4=C(CCCC4=O)Nc4onc(C)c43)cc2)cc1 (stereo not given) | -14% | 0.6 | -24 | 7 | 28µM* | 21% | -11%
COC(=O)c1sccc1NC(=S)N(C)C1CCCCC1 | -15% | 3.6 | 11 | -3 | 1.3% | 8% | -21%
COc1ccccc1/C=C/c1nc2ccc(OC(C)=O)cc2c(=O)o1 | 0% | 7.3 | -6 | -4 | -19% | 10%[15.4 µM] | 28%
CC1(C)CC(=O)C2=C(C1)NC(=O)CC2c1cc2c(cc1Br)OCO2 (stereo not given) | 1% | 0.2 | -7 | -3 | -2.2% | 10% | 17%
O=C(CSc1ccc2nnc(-c3cccnc3)n2n1)NCC1CCCO1 (stereo not given) | 18% | 0.4 | -5 | -16 | 4.8% | ? | 15%
Cc1cnc(NC(=O)CSc2c(Cl)cccc2Cl)s1 | -4% | 2.9 | -33 | -5 | -8.5% | -16% | ?
COc1cc(OC)cc(C(=O)Nc2ccccc2NC(C)=O)c1 | 7%[15.4 µM] | 6.4 | -37 | 2 | -3.1% | ? | 12%
CC(C)C[C@H]1CNC(=S)N1CC1CCN(CC2CCCC2)CC1 | -7% | / | -18 | / | -1.4% | / | /

Ordered by the number under gsp ag (highest first): some entries from above
Compound	gsp antagonist	Menin MLL FP FL	D2 PAM	gsp ag	Sfp PPTase inh
COC(=O)c1ccc(COc2ccc(C3C4=C(CCCC4=O)Nc4onc(C)c43)cc2)cc1 (stereo not given)	-14%	0.6	-24	21%	-11%
CCN(CC)Cc1c(CC(C)C)oc(C)c1C(=O)O	-1%	2.1	4	14%	1%
CC1(C)CC(=O)C2=C(C1)NC(=O)CC2c1cc2c(cc1Br)OCO2 (stereo not given)	1%	0.2	-7	10%	17%
Cc1cccc(-n2nc3c(c2NC(=O)c2c(F)cccc2F)CS(=O)(=O)C3)c1C	16%	1.5	-5	0%	20%
CCCCNC(=S)N(C)/N=C/c1ccccc1C(=O)O	-21%	0.4	-6	-2%	16%
COC(=O)c1c(F)c(F)c(N2CCOCC2)c(F)c1F	8%	6.2	-3	-7%	19%
COc1ccc(OC2CCN(S(=O)(=O)c3ccc(F)cc3)CC2)cc1	-5%	-1.8	0	-24%	-3%

(continued)
SMILES | gsp antagonist | Menin MLL FP FL | D2 PAM | TRPV1 potentiator | ClpP mod | gsp ag | Sfp PPTase inh
CC(C)(C)OC(=O)NOCC(=O)N(Cc1ccccc1)CC(O)COc1ccccc1 (stereo not given) | -2% | / | -6 | 24 | -2.5% | -32% | /
C=CCc1ccc(OC)c(OC)c1 | -3% | 0.3 | 2 | 1 | -0.2% | / | 16%
CCc1ccc(-c2nc(SCC(=O)c3c(N)n(C)c(=O)n(C)c3=O)n[nH]2)cc1 | -2% | / | -16 | / | -5.5% | -3%[15.4 µM] | /
Cc1ccc(NC(=O)CN(C)C(=O)c2cccc(S(=O)(=O)NCc3ccccc3)c2)cc1 | 2% | / | -38 | -4 | -1.7% | 12% | /
CCN(CC(=O)NCc1ccccn1)S(=O)(=O)c1ccc(Cl)cc1 | 3% | -2.8 | -10 | 6 | -1.9% | -32%[inhibitor] | ?
COc1ccc(NC(=O)CN(C)C(=O)C(C)Sc2ccccc2)cc1 (stereo not given) | 4% | 3.6 | 12 | -3 | 0.9% | -2% | 2%
Cc1cc(N/N=C/c2ccccc2F)nc(NCc2ccccc2)n1 | -6% | -0.3 | -5 | 12 | 0.1% | 15%[15.4 µM] | ?
O=C(O)c1ccccc1N=N/C(=N/Nc1cc(S(=O)(=O)O)ccc1O)c1ccccc1 | -19% | / | -6 | 1 | -6.7% | -7% | /
Cc1nc(-c2ccc(S(=O)(=O)Oc3ccccc3Cl)s2)cs1 | ? | -1.1 | 21 | -4 | / | 2% | -4%
CC(c1ccccc1)c1nnc(NC(=O)Nc2ccccc2F)s1 (stereo not given) | -8% | / | 2 | -8 | 1.1% | 3% | 4%
COc1ccccc1CNC(=O)C/C(C)=N/NC(=O)COc1ccc(C)cc1Br | 0% | -3.4 | -22 | 3 | -2.5% | -42%[inhibitor] | 5%
CCCCC(CC)C(=O)NCC(C)NC(=O)C(CC)CCCC (stereo not given) | -10% | 3.0 | 2 | -15 | -0.2% | -6% | -3%
OC1CCCN(CC(O)COc2ccc(-c3ccccc3)cc2)C1 (stereo not given) | 9% | -0.8 | -11 | -1 | / | -1% | -2%
CC(C)(C)C1CCC(=NNC(=O)CN(c2ccccc2)S(=O)(=O)c2ccccc2[N+](=O)[O-])CC1 (stereo not given) | 15% | 0.6 | 7 | 3 | 0.9% | ? | -7%
O=C(Cc1ccsc1)N1CCN(S(=O)(=O)c2cccc(F)c2)CC1 | 0% | / | 2 | -9 | 1.2% | 7% | /
COC(=O)c1cc(S(=O)(=O)NCC2CCN(Cc3ccc(F)cc3)CC2)cn1C | 13% | / | -12 | 21 | 0.8%&0.0% | -1% | 6%

Compound profiles (already shown):
CC(c1ccccc1)c1nnc(NC(=O)Nc2ccccc2F)s1 (stereo not given) across the screens: gsp antagonist = -8%; Menin MLL FP FL = /; D2 PAM = 2; TRPV1 potentiator = -8; ClpP mod = 1.1%; gsp ag = 3%; Sfp PPTase inh = 4%
CCCCC(CC)C(=O)NCC(C)NC(=O)C(CC)CCCC (stereo not given) across the screens: gsp antagonist = -10%; Menin MLL FP FL = 3.0; D2 PAM = 2; TRPV1 potentiator = -15; ClpP mod = -0.2%; gsp ag = -6%; Sfp PPTase inh = -3%

Screening data: PubChem BioAssay, National Center for Advancing Translational Sciences (NCATS)
